GLA inh pH 4.5: alpha-galactosidase A (human) inhibition, pH 4.5; P06280; purified enzyme, 4-MU-alpha-Gal fluorescence, pH 4.5; activity change, negative = inhibition, % at 105 µM; 230,000 tested, under 10 active; inconclusive = small, poorly fitted or top-dose-only inhibition, or a rising curve; inactive = flat fitted curve, though single readings scatter; no compound was filed as active;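 note: 0% = full activity with enzyme and -100% = basal without enzyme; dose as in the result columns while the protocol names 77 µM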
Rango dissoc inh: inhibitors of RanGTP-induced Rango-importin beta complex dissociation; Biochemical FRET Rango-importin beta, RanGTP-induced dissociation; Potency, µM (highest dose often 46.1 µM), inactives show top-dose activity change, negative = inhibition; 0.071% of 340,000 active; AID 540253; active means falling FRET ratio curve, often poorly fitted, with flat reads before Ran was added; inconclusive means other falling curves, or compound fluorescence or quenching; inactive means flat or rising ratio curve;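 note: potency is the fitted concentration of half-maximal effect; % of control where 0% means no effect; nearly all actives have a fitted effect of over 45% in size; -100% = wells without RanGTP and RCC1; the record marks most hits as doubtful in a second field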
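Rango (0.1 uM)–importin beta (0.25 uM) complex; RanGTP-RCC1 trigger; 45 min RT; CFP/YFP FRET read.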
miR-21 reporter: miR-21 reporter, rising signal; HeLa miR-21 FLuc reporter, luciferase, 48 h; AID 2288; 340,000 tested, under 10 active; Potency, µM (highest dose often 38.3 µM), for the others: at the top dose reporter change, positive = more light; active = well fitted rising curve with a large enough effect; inconclusive = small, poorly fitted or top-dose-only effect; inactive = no such curve, though single readings can be large or run the other way;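 note: % of control where 0% means no effect; miR-21 action dims this reporter so a rising signal means less miR-21 action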
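Luminescence from a firefly luciferase reporter carrying a miR-21 binding site downstream, stably expressed under a CMV promoter in HeLa cells that make miR-21 endogenously, reports miRNA modulation after 48 h compound exposure up to approximately 40uM final.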
Rango complex inh: Rango-importin beta binding inhibition; Q14974; Rango CFP/YFP FRET sensor + importin beta, 45 min; Potency, µM (highest dose often 92.2 µM), without a hit: at the highest dose inhibition of complex formation; 0.031% of 340,000 active; AID 540263; active = rising FRET ratio curve, often small or poorly fitted; inconclusive = mostly compound fluorescence or quenching in the first reads; inactive = flat curves in all reads;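 note: potency is the fitted concentration of half-maximal effect; 0% = DMSO wells and 100% = buffer wells lacking importin beta; nearly all actives have a fitted effect of over 15% in size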
Target sequence (Q14974 whole entry, looked up): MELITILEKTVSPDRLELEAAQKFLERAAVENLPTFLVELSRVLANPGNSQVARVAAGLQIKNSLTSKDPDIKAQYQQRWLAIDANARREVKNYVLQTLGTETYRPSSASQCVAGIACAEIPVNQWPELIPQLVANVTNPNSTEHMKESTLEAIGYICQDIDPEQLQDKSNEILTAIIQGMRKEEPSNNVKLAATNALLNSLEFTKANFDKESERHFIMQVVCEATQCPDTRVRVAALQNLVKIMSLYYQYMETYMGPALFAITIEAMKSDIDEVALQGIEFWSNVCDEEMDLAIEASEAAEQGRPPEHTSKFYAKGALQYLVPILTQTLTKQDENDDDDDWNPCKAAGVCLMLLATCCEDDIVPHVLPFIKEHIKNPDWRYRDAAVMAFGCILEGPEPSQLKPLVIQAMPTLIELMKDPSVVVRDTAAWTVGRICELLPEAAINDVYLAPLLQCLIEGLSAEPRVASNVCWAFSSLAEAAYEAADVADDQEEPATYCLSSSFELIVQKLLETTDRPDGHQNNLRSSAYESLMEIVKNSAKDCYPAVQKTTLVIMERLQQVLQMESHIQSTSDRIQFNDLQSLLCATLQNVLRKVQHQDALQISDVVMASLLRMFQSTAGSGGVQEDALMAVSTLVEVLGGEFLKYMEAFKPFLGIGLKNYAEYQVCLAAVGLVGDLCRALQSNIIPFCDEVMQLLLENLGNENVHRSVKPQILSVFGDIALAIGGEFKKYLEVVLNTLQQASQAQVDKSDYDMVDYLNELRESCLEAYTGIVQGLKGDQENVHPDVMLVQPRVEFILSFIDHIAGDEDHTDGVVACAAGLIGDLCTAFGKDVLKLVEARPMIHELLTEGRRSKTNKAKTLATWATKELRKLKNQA
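FRET biosensor Rango (snurportin 1 IBB between N-terminal EYFP and C-terminal Cerulean), 50 nM in PBS/1 mM DTT/0.02% Tween-20/0.1% BSA, preincubated 5 min RT with compound; 0.125 microM importin beta added, 45 min RT, CFP/YFP FRET ratio read.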
* hit, by the source's call; & = joins results of further samples.

`O=C(CN1CCCC1)Nc1ccc(F)c(Cl)c1` gave Rango dissoc inh 25%, miR-21 reporter -5% and Rango complex inh -3.5%.
O=C(Nc1ccccc1)c1ccc(=O)[nH]n1 was read as Rango dissoc inh 0%, miR-21 reporter -8% and Rango complex inh 4.5%.
Screening Cc1cc(C)c2c(c1)N[C@H](c1cccs1)[C@@H]1CCO[C@H]21 returned GLA inh pH 4.5 -8, Rango dissoc inh -2%, miR-21 reporter -11% and Rango complex inh -3.6%.
Screening COc1cccc2c1c(NC(=O)Nc1ccc(F)cc1F)nn2C returned GLA inh pH 4.5 -6, Rango dissoc inh -9%, miR-21 reporter -1% and Rango complex inh -0.8%.
Cc1ccc(NC(=O)C(CC(=O)O)C2CCCO2)c(C)c1 (stereo unspecified) was read as Rango dissoc inh -25%, miR-21 reporter 0% and Rango complex inh 3.2%.
COc1ccc(C(=C(CC(=O)O)C(=O)OC(C)(C)C)c2cc(OC)c(OC)c(OC)c2)cc1OC was read as Rango dissoc inh -9% and Rango complex inh -0.3%.
Screening CSCCC(NC(=O)c1ccco1)C(=O)N1CC=C(c2ccccc2)CC1 (stereo unspecified) returned Rango dissoc inh 11%, miR-21 reporter 1% and Rango complex inh 1.1%.
Screening CCOC(=O)C1CCCN(S(=O)(=O)c2cc(Br)cc3c2N(C(=O)C2CC2)CC3)C1 (stereo unspecified) returned GLA inh pH 4.5 2, Rango dissoc inh -11%, miR-21 reporter -6% and Rango complex inh -1.3%.
COc1ccc(C(=O)N/C(=C/c2cccs2)C(=O)NN)cc1OC was read as GLA inh pH 4.5 -5, Rango dissoc inh 3%, miR-21 reporter 6% and Rango complex inh 0.1%.
Screening CC(C)C1Nc2ccc(C(=O)NCc3ccco3)cc2NC1=O (stereo unspecified) returned Rango dissoc inh -11%, miR-21 reporter 5% and Rango complex inh -0.7%.
CCOc1ccc(NC(=O)CCC(=O)N2CCSc3ccccc32)cc1 was read as Rango dissoc inh -4%, miR-21 reporter 11%&6% and Rango complex inh 4.9%.
For O=C(NC1CCS(=O)(=O)C1)c1sc2ccccc2c1Cl (stereo unspecified) the results were GLA inh pH 4.5 8, Rango dissoc inh 2%, miR-21 reporter -31% and Rango complex inh -0.5%.

Next section; the last three above are carried over.
Screening CC(C)C1Nc2ccc(C(=O)NCc3ccco3)cc2NC1=O (stereo unspecified) returned Rango dissoc inh -11%, miR-21 reporter 5% and Rango complex inh -0.7%.
CCOc1ccc(NC(=O)CCC(=O)N2CCSc3ccccc32)cc1 was read as Rango dissoc inh -4%, miR-21 reporter 11%&6% and Rango complex inh 4.9%.
For O=C(NC1CCS(=O)(=O)C1)c1sc2ccccc2c1Cl (stereo unspecified) the results were GLA inh pH 4.5 8, Rango dissoc inh 2%, miR-21 reporter -31% and Rango complex inh -0.5%.
Screening COc1ccc(C(CC(=O)N2CCN(C)CC2)NC(=O)C(F)(F)F)cc1 (stereo unspecified) returned Rango dissoc inh 8%, miR-21 reporter -7% and Rango complex inh -1.1%.
`COc1ccc(N2CCN(C(=O)CCN3C(=O)c4ccccc4S3(=O)=O)CC2)cc1` gave GLA inh pH 4.5 3, Rango dissoc inh -1%, miR-21 reporter 2% and Rango complex inh -1.2%.
Screening CN(C)C(=S)NC(=O)c1cccc(Cl)c1 returned GLA inh pH 4.5 0, Rango dissoc inh -7%, miR-21 reporter -4% and Rango complex inh -1.9%.
`CN(CC(=O)Nc1ccccc1Cl)CC(=O)c1c(N)n(Cc2ccccc2)c(=O)n(C)c1=O` gave Rango dissoc inh -8% and Rango complex inh 0.0%.
For O=c1c(/C=N/N2CCOCC2)c(C(F)(F)F)[nH]n1-c1ccccc1 the results were GLA inh pH 4.5 -27, Rango dissoc inh 0%, miR-21 reporter -2% and Rango complex inh 0.0%.
COc1cc2oc3cc(C)oc(=O)c3c2cc1OC was read as GLA inh pH 4.5 7, Rango dissoc inh 6%, miR-21 reporter -39% and Rango complex inh 3.9%.
Cc1ccc(N(CC(=O)NCc2ccccc2)C(=O)c2csnn2)cc1 was read as Rango dissoc inh 0%, miR-21 reporter -23% and Rango complex inh 0.1%.
O=C1/C(=C\Nc2ccc(OC(F)(F)F)cc2)CCN1c1ncccn1 was read as GLA inh pH 4.5 4, Rango dissoc inh -14%, miR-21 reporter -31% and Rango complex inh -1.7%.
For Cc1ccc(NC(=O)CCC(=O)c2cccs2)nc1 the results were Rango dissoc inh -18% and Rango complex inh -4.6%.
For Cc1cc(/C=N/n2cnnc2)c(C)n1-c1ccc2ncccc2c1 the results were Rango dissoc inh -27% and Rango complex inh -5.1%.
Screening CCSc1nnc2n(-c3ccc(OC)cc3)c(=O)c3c4c(sc3n12)CCCC4 returned GLA inh pH 4.5 inconclusive, Rango dissoc inh 14%, miR-21 reporter -6% and Rango complex inh -1.8%.
`O=C(/C=C/c1ccc(O)cc1)c1ccc(O)cc1O` gave GLA inh pH 4.5 -5&-12&-18&0, Rango dissoc inh -8%, miR-21 reporter 9% and Rango complex inh 5.1%.
O=C(CNC(=O)c1ccco1)N=Nc1c(O)[nH]c2ccc(Br)cc12 was read as Rango dissoc inh -10%, miR-21 reporter -8% and Rango complex inh 0.7%.
Screening O=C(Nc1scc(-c2ccccc2)c1C(=O)O)c1ccccc1F returned Rango dissoc inh 7%, miR-21 reporter -3% and Rango complex inh 2.3%.
O=C(O)c1cccc(CN2C(=O)CSC2=O)c1 was read as GLA inh pH 4.5 2, Rango dissoc inh -8%, miR-21 reporter -7% and Rango complex inh 1.4%.
CCOC(=O)C1=NN(C(=O)Nc2cccc(C(F)(F)F)c2)C2C(=O)N(c3cccc(C(F)(F)F)c3)C(=O)C12 (stereo unspecified) was read as GLA inh pH 4.5 -4, Rango dissoc inh inconclusive, miR-21 reporter -6% and Rango complex inh 0.0%.
Screening CC(C)CN(C(=O)c1ccc(=O)n(C)n1)c1nc2ccccc2s1 returned GLA inh pH 4.5 -1, Rango dissoc inh 8%, miR-21 reporter -30% and Rango complex inh -1.8%.
`COc1ccc([C@H]2C=C3CN(C(=O)OC(C)(C)C)S(=O)(=O)[C@H]3C[C@H]2OC(=O)c2cccs2)cc1` gave GLA inh pH 4.5 1, Rango dissoc inh 0%, miR-21 reporter 28% and Rango complex inh -1.0%.
COc1ccc(-c2cn(-c3ccc(C)cc3)c(=O)n2CC(=O)Nc2ccc(OC)c(OC)c2)cc1 was read as GLA inh pH 4.5 -1, Rango dissoc inh -4%, miR-21 reporter -9% and Rango complex inh -0.3%.
`CCCCCOC(=O)C1[C@H]2C(=O)N(CCCOC)C[C@]23C=C[C@H]1O3` (stereo partly specified) gave GLA inh pH 4.5 -4, Rango dissoc inh -4%, miR-21 reporter 1% and Rango complex inh -2.8%.
Screening CC(C)CC(=O)Nc1nnc(SCC(=O)Nc2ccc(F)cc2)s1 returned GLA inh pH 4.5 10, Rango dissoc inh -8%, miR-21 reporter -6% and Rango complex inh 2.2%.
`CCOC(=O)N1CCc2c(sc3c2C(=O)NC(c2ccccc2)N3)C1` (stereo unspecified) gave GLA inh pH 4.5 18, Rango dissoc inh inconclusive, miR-21 reporter 10% and Rango complex inh inconclusive.
Screening Cc1ccc(Cn2c(C(C)Nc3nc(-c4ccc(C)cc4)cs3)nc3cc(Cl)c(Cl)cc32)cc1 (stereo unspecified) returned Rango dissoc inh 3%, miR-21 reporter 1% and Rango complex inh 0.5%.
CCOC(=O)c1ccc(NC(=O)CSc2nc3cccnc3n2C)cc1 was read as GLA inh pH 4.5 -4, Rango dissoc inh inconclusive, miR-21 reporter 1% and Rango complex inh 1.6%.
`N#C/C(=C\c1ccc(Cl)cc1)c1n[nH]c(Cn2cncn2)n1` gave GLA inh pH 4.5 10, Rango dissoc inh 4%, miR-21 reporter -2% and Rango complex inh 2.1%.
CC(OC(=O)C1CCN(c2ccc(C(F)(F)F)cn2)CC1)C(=O)c1ccccc1 (stereo unspecified) was read as Rango dissoc inh 14% and Rango complex inh 1.4%.
For COc1ccc(OCC(=O)OCC(=O)Nc2cc(S(=O)(=O)N3CCOCC3)ccc2Cl)cc1 the results were Rango dissoc inh 23% and Rango complex inh -2.5%.
`CCOc1ccc(C(C)=O)cc1CSc1nnc(-c2ccoc2C)n1N` gave GLA inh pH 4.5 -1, Rango dissoc inh -21%, miR-21 reporter -6% and Rango complex inh 2.4%.
For CN1CCN(C(=S)Nc2ccc(Oc3ccccc3)cc2)CC1 the results were GLA inh pH 4.5 6, Rango dissoc inh -3%, miR-21 reporter -12% and Rango complex inh -2.4%.
CNC(=O)c1cc(C(=O)c2c(Cl)cccc2Cl)c[nH]1 was read as GLA inh pH 4.5 2, Rango dissoc inh 4%, miR-21 reporter 2% and Rango complex inh 3.6%.
`CC(C)=CC(=O)N1CCCC(N2CCN(c3ccc(F)cc3)CC2)C1` (stereo unspecified) gave Rango dissoc inh -4%, miR-21 reporter 0% and Rango complex inh 1.4%.
CCC1(C)Cc2c(sc(NC(=O)CCC(=O)O)c2C#N)CO1 (stereo unspecified) was read as GLA inh pH 4.5 -1, Rango dissoc inh 0%, miR-21 reporter -1% and Rango complex inh 1.3%.
Screening COc1cc(C(=O)NCC(=O)N2CCN(S(=O)(=O)c3ccccc3)CC2)cc(OC)c1OC returned Rango dissoc inh 33% and Rango complex inh 0.3%.
CCN(CC)S(=O)(=O)c1cccc(C(=O)N/N=C/c2c(C)nn(-c3ccccc3)c2Cl)c1 was read as GLA inh pH 4.5 1, Rango dissoc inh 1%, miR-21 reporter -3% and Rango complex inh inconclusive.
CC(Sc1cccc[n+]1[O-])C(=O)Nc1cccc([N+](=O)[O-])c1 (stereo unspecified) was read as GLA inh pH 4.5 1, Rango dissoc inh 6%, miR-21 reporter -20% and Rango complex inh 5.7%.
Screening COc1cc(CCN2C(=O)c3cccc4cccc(c34)C2=O)c(S(=O)(=O)N2CCCCCC2)cc1OC returned GLA inh pH 4.5 6, Rango dissoc inh 32%, miR-21 reporter -4% and Rango complex inh 2.0%.
Screening CC(C)(C)n1nc2c(c1NC(=O)c1cccc(Cl)c1)CS(=O)(=O)C2 returned Rango dissoc inh 18%, miR-21 reporter -4% and Rango complex inh -1.4%.
N#Cc1cccc(NC(=O)CSc2n[nH]c(=O)[nH]c2=O)c1 was read as GLA inh pH 4.5 -1, Rango dissoc inh 22%, miR-21 reporter 7% and Rango complex inh 0.9%.
Screening CCCc1cc(=O)[nH]c(-n2[nH]c3c(c2=O)CCCC3)n1 returned GLA inh pH 4.5 3, Rango dissoc inh inconclusive, miR-21 reporter 23% and Rango complex inh inconclusive.
`CCN(C(=O)CSc1nnc(NCc2ccccc2)s1)C1CCS(=O)(=O)C1` (stereo unspecified) gave GLA inh pH 4.5 -6, Rango dissoc inh -1%, miR-21 reporter 2% and Rango complex inh -0.4%.
Screening CC1S/C(=N/N=C/c2cccs2)NC1=O (stereo unspecified) returned GLA inh pH 4.5 -13, Rango dissoc inh 7%, miR-21 reporter -37% and Rango complex inh -1.5%.
O=C(Cn1cnc2c(NCc3ccccc3)ncnc21)NCc1ccccc1 was read as Rango dissoc inh -22% and Rango complex inh 1.9%.
`Cc1nn(C(C)(C)C)c(OC(=O)c2ccc(Br)o2)c1Sc1ccccc1` gave GLA inh pH 4.5 -4, Rango dissoc inh 23%, miR-21 reporter 13% and Rango complex inh 1.3%.
COc1cccc(C(=O)COc2cccc(NC(=O)c3cccc([N+](=O)[O-])c3)c2)c1 was read as GLA inh pH 4.5 5, Rango dissoc inh 19%, miR-21 reporter inconclusive and Rango complex inh 0.0%.
For CCCC(=O)Nc1sc2c(c1C#N)CC(C)(C)NC2(C)C the results were GLA inh pH 4.5 0, Rango dissoc inh 0%, miR-21 reporter -7% and Rango complex inh -4.7%.
CCOc1ncccc1C(=O)OCC(=O)Nc1cc(S(=O)(=O)N2CCOCC2)ccc1Cl was read as GLA inh pH 4.5 -3, Rango dissoc inh -11%, miR-21 reporter -2% and Rango complex inh 5.8%.
For CSCCC(NC(=O)c1ccco1)C(=O)Nc1ccc(C)c(S(=O)(=O)N2CCOCC2)c1 (stereo unspecified) the results were Rango dissoc inh -11% and Rango complex inh 2.0%.
For COc1ccccc1CC(=O)Nc1ccon1 the results were Rango dissoc inh 7%, miR-21 reporter 0% and Rango complex inh inconclusive.
Screening Cc1cccc(OCCN2C(=O)C(=O)c3cc(C)ccc32)c1 returned GLA inh pH 4.5 5, Rango dissoc inh 10%, miR-21 reporter 12% and Rango complex inh -0.6%.

Screening data as filed in PubChem BioAssay.

An excerpt; count on the stated rates, not on these rows.
